Screening data from PubChem.
VACV mCherry inh = inhibitors of vaccinia virus infection (mCherry reporter signal); Vaccinia virus mCherry reporter infection, fluorescence; about a quarter of the inactives have no number; Potency, µM (top dose mostly 36.5 µM), without a hit: top-dose activity change, negative = inhibition, usual class: inhibitors; 310,000 tested, 0.63% active; AID 720579; active = well fitted inhibition curve with a large enough effect; inconclusive = small, poorly fitted or top-dose-only effect; inactive = no such curve, though single readings can be large or run the other way; tested in A549 cells; also: nearly all actives have a fitted effect of over 35% in size; inactives centre near -10
VACV Venus inh = vaccinia inhibition (Venus reporter); Vaccinia virus Venus reporter expression, fluorescence; Potency, µM (top dose mostly 36.5 µM), for inactives: at the top dose activity change, negative = inhibition, usual class: inhibitors; 330,000 tested, 0.46% active; active means well fitted inhibition curve with a large enough effect; inconclusive means small, poorly fitted or top-dose-only effect; inactive means no such curve, though single readings can be large or run the other way; tested in A549 cells; also: nearly all actives have a fitted effect of over 30% in size; inactives centre near -10
The depositor's hits bear a star; i = inactive; ? = inconclusive; nt = not tested or not shown; & = joins results of further samples; [ ] = dose if it differs, or a comment. % is scaled to controls: 0 for no effect and ±100 for the full control effect; potency is read from the fitted curve at half-maximal effect.

SMILES	VACV mCherry inh	VACV Venus inh
CN1CCN(C(=S)NCCc2ccccc2)CC1	i	-2%
CCC1(c2ccc(F)cc2)NC(=O)N(CC(=O)NC2CCCC(C)C2C)C1=O (stereo not given)	?	-29%
CN(Cc1cnn(C)c1)C(=O)c1cc2ccccc2oc1=O	-16%	-6%
CC(=O)C1=C(O)C(=O)N(c2ccc(S(=O)(=O)Nc3nccs3)cc2)C1c1ccc([N+](=O)[O-])cc1 (stereo not given)	-12%	7%
CCCCCCCCCCOC(=O)Cn1c(COc2ccc(C)cc2)[n+](C)c2ccccc21	-20%	?
Cc1ccc(C=C2C(Cl)=C(Cl)C(Cl)=C2Cl)cc1	4%	10%
Cc1ccc(OCCCn2c(C3CC(=O)N(c4cccc(Cl)c4)C3)nc3ccccc32)c(C)c1 (stereo not given)	2%	-12%
N#Cc1ccc(OC(=O)C2CCN(C3=NS(=O)(=O)c4ccccc43)CC2)cc1	-13%	-5%
O=C(Nc1cc(Cl)cc(Cl)c1)c1ccno1	-11%	-7%
C[C@@H]1O[C@@H](O[C@H]2C[C@@H](O)[C@]3(CO)[C@@H]4C(CC[C@]3(O)C2)[C@@]2(O)CC[C@H](C3=CC(=O)OC3)[C@@]2(C)C[C@H]4O)[C@H](O)[C@H](O)[C@H]1O (stereo not given in full)	-11%	-9%
Cc1ccc(Cl)cc1NC(=O)CCC(=O)N1CC(C)Sc2ccccc21 (stereo not given)	-16%	-12%
COc1ccc(N2CC(C(=O)N3CCc4ccccc43)CC2=O)cc1 (stereo not given)	-26%	-17%
Cc1ccn(CC(=O)N2CCCC(N3CCN(Cc4ccc5c(c4)OCO5)CC3)C2)n1 (stereo not given)	i	-18%
O=c1[nH]c(O)c(Cc2ccc3c(c2)OCO3)c(=O)[nH]1	i	-3%
O=C(CCCN1C(=O)/C(=C\c2ccco2)SC1=S)Nc1cccc2ccccc12	i	4%
Cc1ccccc1CNC(=O)CN1C(=O)CSc2ccc(S(=O)(=O)N(C)C)cc21	-3%	6%
CC(OC(=O)c1cn(C)c2ccccc12)C(=O)N1CCCC1 (stereo not given)	-15%	-18%
Cc1ccc(OCCC(=O)OCC(=O)NC2CCS(=O)(=O)C2)cc1 (stereo not given)	-5%	-8%
CCOC(=O)Nc1cc2c(cc1[N+](=O)[O-])-c1ccccc1C2=O	-11%	-8%
NC1=NC2(CCCCC2)N(c2ccc(F)cc2)C(N)=N1	-12%	-8%
C=CCOc1ccc(C2NC(=O)c3ccccc3O2)cc1 (stereo not given)	i	-2%
Cc1cc(F)c(F)c(C(=O)N2CCN(C)CC2)c1Cl	-13%	0%
Cc1ccc(/C=N/n2c(-c3ccncc3)n[nH]c2=S)o1	i	-10%
C#CCOCCOCCOCCNc1nc(N2CCN(C(=O)Cn3cc(CCCN=C(N)N)nn3)CC2)nc(N2CCN(C(=O)[C@H](C)n3cc(CCCN=C(N)N)nn3)CC2)n1	-18%	1%
COc1ccc(-c2cc3ccc(O)c(CN4CCCC(C)C4)c3oc2=O)cc1 (stereo not given)	-11%[7.34 µM]	-8%[7.34 µM]
Cc1cccc(CCNC(=O)C2CCCN(S(=O)(=O)c3cnc[nH]3)C2)c1 (stereo not given)	i	-11%
COc1ccc(C(=O)C2CCCN(Cc3cn(C)nc3-c3ccccc3)C2)cc1F (stereo not given)	-12%	-19%
COc1ccc(CNC(=O)CCCn2nc(C)c([N+](=O)[O-])c2C)cc1	i	-9%
COc1ccc(C(=O)c2cn(Cc3ccccc3)c3ccccc3c2=O)cc1OC	i	-9%
CCCc1cc(=O)[nH]c(SCc2nc3ccc([N+](=O)[O-])cc3[nH]2)n1	-15%	-18%
Cc1ccc(C(C(=O)Nc2ccc3c(c2)OCO3)N(C)C(=O)Cc2c[nH]c3ccccc23)cc1 (stereo not given)	?	?
O=C1[C@H](Cc2ccccc2)NCCCC[C@H](c2ccc(Cl)cc2)N1Cc1ccccc1	?	-20%&-26%
CCC(C(=O)O)N1C(=O)c2ccccc2C1=O (stereo not given)	-9%	-9%
CCCCC/C=C\C/C=C\CCCCCCCCCC(=O)O	-19%[3.33 µM]	-22%[3.33 µM]
Cc1nc(-c2ccc(NC(=O)C3CCCCC3)cc2)cs1	nt	-24%
CCc1cccc(NC(=O)c2c(C)oc3nc(C)nc(N4CCCC4)c23)c1	-3%	-12%
CCC(C)C(NC(=O)c1ccccc1NC(=O)c1ccco1)C(=O)NNC(=O)c1ccncc1 (stereo not given)	-6%[7.34 µM]	?
O=C(c1cccs1)N1CCN(S(=O)(=O)c2ccc(F)cc2)CC1	i	-1%
CCc1cccc(NS(=O)(=O)c2ccc3c(c2)CC(C)N3C(=O)C2CC2)c1 (stereo not given)	?	?
Cc1ccc(OCC(=O)NNC(=O)c2ccc(F)c(S(=O)(=O)N3CCOCC3)c2)cc1C	-15%	0%
CCc1ccc(CNC(=O)c2ccc3c(c2)N=C(C)c2cc(C)ccc2S3)cc1	?	?
C=CCN(c1ccccc1)S(=O)(=O)c1cccc(C(=O)NNC(=O)c2ccncc2)c1	-11%	0%
COc1ccc(-c2nn(CCC#N)cc2C(=O)O)cc1	-8%	-13%
CCOC(=O)c1cnc(COc2ccc(OC)cc2)[nH]c1=O	-14%	0%
COc1cccc(CNC(=O)Cn2nc([N+](=O)[O-])c(Br)c2C)c1	-6%	-18%
CCCCCC(=O)Nc1nc(C)c(-c2csc(Nc3cc(Cl)ccc3OC)n2)s1	?	?
COc1ccc(N2C(=O)CS(=O)(=O)C23C(=O)N(Cc2ccccc2)c2ccccc23)cc1 (stereo not given)	-4%	-6%
C[C@H](CO)N1C[C@H](C)[C@H](CN(C)Cc2ccccc2)Oc2ccc(NC(=O)Nc3ccc(F)cc3)cc2C1=O	?	?
COc1ccc(C(C(=O)NC2CCCC2)N(CCO)C(=O)Cn2nnc(-c3ccc(C)o3)n2)cc1OC (stereo not given)	i	-13%
Cc1ccccc1NC(=O)NCCN1CC1	-11%	?
O=C(CNC(=S)N(Cc1ccccc1F)C1CCCCC1)NCC1CCCO1 (stereo not given)	-28%	?
O=C(CCC(=O)N(CC(=O)NC1CCCCC1)c1ccccc1F)Nc1nccs1	-15%	-4%
CCCCc1ccc(C(=O)Nc2ccc3nc(N(CC)CC)cc(C)c3c2)cc1	-16%	-19%
CCN=C1SC(CC(=O)Nc2sc(C)c(C)c2C(=O)OC)C(=O)N1CC (stereo not given)	-15%	-7%
COc1ccc(-c2nn(-c3ccccc3)cc2C(=O)N2CCN(C(=O)c3ccco3)CC2)cc1	i	-9%
O=C(COC(=O)C1CCCCC1)Nc1ccccc1OC(F)F	-6%	4%
Cc1ccc(CS(=O)(=O)c2ncc(Cl)c(C(=O)Nc3nc4ccc(F)cc4s3)n2)cc1	?	?
O=C(Nc1cc(SCCO)cc([N+](=O)[O-])c1)c1ccco1	-2%	-17%
COc1ccc(S(=O)(=O)NCCS(=O)(=O)N2CCN(c3ccccc3)CC2)cc1OC	0%	-10%
COc1ccccc1NC(=O)c1ccc(S(=O)(=O)NCc2ccco2)cc1	3%	-6%

Profiles as entered above. Order of values: VACV mCherry inh, VACV Venus inh
CCN=C1SC(CC(=O)Nc2sc(C)c(C)c2C(=O)OC)C(=O)N1CC (stereo not given) as listed: -15%, -7%
CCCCCC(=O)Nc1nc(C)c(-c2csc(Nc3cc(Cl)ccc3OC)n2)s1 as listed: ?, ?
CCOC(=O)c1cnc(COc2ccc(OC)cc2)[nH]c1=O as listed: -14%, 0%

Further entries
SMILES	VACV mCherry inh	VACV Venus inh
O=C(NC1CCCCCCC1)c1cc(COc2ccc3ncccc3c2)on1	-25%	-18%
COc1ccc(CCNc2oc(COc3ccccc3F)nc2C#N)cc1OC	i	-26%
O=C(NNS(=O)(=O)c1ccccc1)C1CC(c2cccnc2)=NO1 (stereo not given)	2%	-2%
CC(C)c1ccc(C(=O)NCCCN(C)C)cc1	i	-16%
O=C(OC(C(=O)NC1CCCCC1)c1ccccc1F)c1ccco1 (stereo not given)	-6%	-4%
O=C(/C=C/c1cccs1)NC1CCCC1	-6%	5%
COc1ccc(NS(=O)(=O)c2ccc(C(=O)N3CCC(C)CC3)cc2)cc1	-27%	3%
CCc1ccc(S(=O)(=O)Nc2ccc(N3CCN(C)CC3)cc2)cc1	-16%[7.34 µM]	-10%[7.34 µM]
COc1ccccc1CNC(=O)Cn1ncc2c(C)n(Cc3ccccc3Cl)c(C)c2c1=O	-17%	-13%
CCOc1ccc(NC(=O)Cn2c(=O)n(Cc3ccc(C(=O)NCc4ccc5c(c4)OCO5)cc3)c(=O)c3ccccc32)cc1	6%	4%
O=C(COC(=O)CNC(=O)c1ccccc1)Nc1ccc(S(=O)(=O)N2CCCC2)cc1	-2%	-10%
NC1=NC(=Nc2ccc(S(N)(=O)=O)cc2)c2ccccc21	-15%	-10%
COc1ccc(/C=N/NC(=O)CNC(=O)c2ccc(S(=O)(=O)N3CCOCC3)cc2)cc1OC	-17%	-3%
O=C(NCc1cc(C(F)(F)F)cc(C(F)(F)F)c1)C1CC(c2ccccc2[N+](=O)[O-])=NO1 (stereo not given)	-9%	-20%
CCc1ccc(N(CC)C(=O)Cn2c(=O)oc3ccccc32)cc1	-15%	-17%
Cc1cc(C)cc(NC(=O)Cc2noc3ccccc23)c1	-21%	-4%
Fc1ccc([C@H]2CCNCC2COc2ccc3c(c2)OCO3)cc1 (stereo not given in full)	-21%	-13%
CCOC(=O)Cc1csc(NC(=O)CC(C)(C)C)n1	-10%	-3%
CCC(C)NC(=O)CC(C)C (stereo not given)	i	-1%
Cc1cccc(NC(=O)CN2C(=O)c3cccc4cccc2c34)c1C	-7%	-30%

A draw from above in order of number of heavy atoms, lowest first:
SMILES	VACV mCherry inh	VACV Venus inh
COc1ccc(CCNc2oc(COc3ccccc3F)nc2C#N)cc1OC	i	-26%
COc1ccc(C(=O)c2cn(Cc3ccccc3)c3ccccc3c2=O)cc1OC	i	-9%
CCOc1ccc(NC(=O)Cn2c(=O)n(Cc3ccc(C(=O)NCc4ccc5c(c4)OCO5)cc3)c(=O)c3ccccc32)cc1	6%	4%

Four of the compounds above, as a markdown table:
| SMILES | VACV mCherry inh | VACV Venus inh |
| --- | --- | --- |
| COc1ccc(CCNc2oc(COc3ccccc3F)nc2C#N)cc1OC | i | -26% |
| O=C(NNS(=O)(=O)c1ccccc1)C1CC(c2cccnc2)=NO1 (stereo not given) | 2% | -2% |
| CC(C)c1ccc(C(=O)NCCCN(C)C)cc1 | i | -16% |
| O=C(OC(C(=O)NC1CCCCC1)c1ccccc1F)c1ccco1 (stereo not given) | -6% | -4% |

Other structures:
SMILES	VACV mCherry inh	VACV Venus inh
COC(=O)c1ccccc1NC(=O)CN1C(=O)COc2ccccc21	-4%	-4%
CCOC(=O)N1CCN(c2c(NCCN3CCCCC3CC)c(=O)c2=O)CC1 (stereo not given)	-22%	-1%
CCOC(=O)[C@]12CCC=C1N(CCC1=CCCCC1)C(=O)[C@H](CC(=O)NCCc1ccccc1OC)C2	-14%	1%
Cc1nnc(SCc2cccc(CSc3nnc(C)s3)c2)s1	-23%	-19%
O=C(COc1ccc(S(=O)(=O)N2CCCC2)cc1Cl)NCc1ccccn1	i	-8%
CC1CCCN(S(=O)(=O)c2cccc(C(=O)NCCCN3CCCC3=O)c2)C1 (stereo not given)	i	-8%
